FGF22 binding – binders of recombinant human FGF22 by thermal shift. Q9HCT0. SYPRO orange fluorescence; percent of sucrose octasulfate shift, DMSO zero. calls only at 9.99 µM. 340,000 tested, 1.5% active;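 active means melting point raised past a set limit in the mean and every replicate; three in four hits are not shown here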
Target sequence (Q9HCT0 whole entry, looked up): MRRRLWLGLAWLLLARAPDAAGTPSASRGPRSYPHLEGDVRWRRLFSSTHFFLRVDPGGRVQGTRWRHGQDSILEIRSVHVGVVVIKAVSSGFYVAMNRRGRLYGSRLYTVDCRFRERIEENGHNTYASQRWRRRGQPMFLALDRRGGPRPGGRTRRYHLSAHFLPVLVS
AF4-AF9 inh – MLL-AF4/AF9 protein interaction inhibition. P42568. AlphaScreen, biotin-AF4 peptide binding to FLAG-AF9. inhibition, % at 10 µM. 350,000 tested, 0.47% active;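 active means every replicate reaching a set inhibition limit, whatever the replicate mean, cut at about 25% in these data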;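 further: 0% = plate neutral control median and 100% = total signal loss; the record names both 10 and 1 µM as test concentration; the first replicate is given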
Target sequence (P42568 whole entry, looked up): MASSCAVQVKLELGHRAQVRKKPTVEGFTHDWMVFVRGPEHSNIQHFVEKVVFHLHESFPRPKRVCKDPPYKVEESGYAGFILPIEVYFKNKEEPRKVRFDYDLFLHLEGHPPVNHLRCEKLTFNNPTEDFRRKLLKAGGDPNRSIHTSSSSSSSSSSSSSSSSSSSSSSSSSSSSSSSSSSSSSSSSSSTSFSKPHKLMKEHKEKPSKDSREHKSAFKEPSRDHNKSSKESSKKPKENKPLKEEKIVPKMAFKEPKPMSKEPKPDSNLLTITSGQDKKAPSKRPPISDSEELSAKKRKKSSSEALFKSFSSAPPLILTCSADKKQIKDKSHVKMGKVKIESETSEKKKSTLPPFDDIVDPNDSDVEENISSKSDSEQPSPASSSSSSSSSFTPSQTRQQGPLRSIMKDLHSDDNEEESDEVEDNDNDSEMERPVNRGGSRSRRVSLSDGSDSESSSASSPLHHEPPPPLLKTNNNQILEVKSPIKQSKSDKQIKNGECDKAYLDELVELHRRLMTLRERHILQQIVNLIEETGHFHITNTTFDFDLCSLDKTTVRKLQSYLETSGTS
rRNA inh HTS – inhibits bacterial ribosomal RNA function over humanized ribosomes | E. coli WT GFP vs humanized-ribosome RFP mutants, fluorescence, 24 h; hits give low values; DMSO median 0, no signal -100 | GFP signal change (wild-type ribosome), % (test concentration not listed) | 350,000 tested, 1.6% active;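 active means significant combined selectivity score with lowered wild-type GFP, culture density cut under 30%, mutant RFP and density less affected; inactive means any of these conditions unmet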; further: one replicate is shown; some compounds called inactive have numbers as strong as hits
rRNA inh HTS OD600 – recorded beside rRNA inh HTS, whose call it bears; OD600 change, %; measured here: OD600 growth;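 optical density of the mix in the first replicate; 0 = DMSO median and -100 = no signal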
rRNA inh HTS RFP – recorded beside rRNA inh HTS, whose call it bears; RFP signal change, %; measured here: RFP humanized mutant strains;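 first replicate; 0 = DMSO median and -100 = no signal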
An asterisk follows results filed as active; i = inactive; + = active, no number; & = joins results of further samples. Not all compounds are listed, so the mix of outcomes need not match the whole.

| molecule | rRNA inh HTS RFP | FGF22 binding | AF4-AF9 inh | rRNA inh HTS | rRNA inh HTS OD600 |
| --- | --- | --- | --- | --- | --- |
| Cc1noc(C)c1NC(=O)N(C)C[C@H]1OCCCC[C@@H](C)Oc2ccc(NC(=O)c3ccncc3)cc2C(=O)N([C@H](C)CO)C[C@@H]1C | -1.3 | i | -3.3 | 1 | 3 |
| O=C(C[C@H]1CC[C@H](NC(=O)C2CCC2)[C@@H](CO)O1)NC1CCC1 | -1.6 | i | -3.8 | 2 | -3 |
| Cc1ccc(OC(C)C(=O)N2CCN(c3ccccn3)CC2)cc1 (stereo not given) | 1.4 | i | 0.5 | 9 | 10 |
| O=C(Nc1ccccc1)[C@H]1[C@H](CO)[C@H]2Cn3c(cccc3=O)[C@@H]1N2C(=O)c1ccc(F)cc1 | -1.1 | i | -0.1 | 0 | 4 |
| CN(C)CCCNC(=O)C[C@@H]1CC[C@H]2[C@@H](COc3ccc(NC(=O)c4ccc5c(c4)OCO5)cc3C(=O)N2C)O1 | -2.6 | i | -0.9 | 4 | 10 |
| Cc1cc(C(=O)Nc2cccc3c2O[C@@H](CN(C)C(=O)Nc2c(C)noc2C)[C@H](C)CN([C@H](C)CO)C3=O)n(C)n1 | 1.2 | i | -3.8 | -1 | -2 |
| Cn1cnc(S(=O)(=O)N2C[C@@H](O)COC[C@@H]3O[C@H](CC(=O)NCc4cc(F)cc(F)c4)CC[C@H]32)c1 | -0.4 | i | -3.1 | 2 | 6 |
| C[C@H]1CN([C@@H](C)CO)C(=O)c2cccc(NC(=O)C3CCCCC3)c2O[C@@H]1CN(C)CC1CCCCC1 | -3.3 | i | 4.2 | 3 | 7 |
| CN(C)C(=S)N=c1ssc(=S)n1Cc1ccco1 | 12 | i | -8.3 | 16 | 11 |
| CCCN(C)C[C@@H]1Oc2cc(C#Cc3ccncc3)ccc2S(=O)(=O)N([C@@H](C)CO)C[C@@H]1C | -1.4 | i | -0.7 | -2 | 8 |
| C[C@@H]1CN([C@@H](C)CO)C(=O)c2cc(N(C)C)ccc2O[C@@H](C)CCCCO[C@H]1CN(C)Cc1ccc(C(F)(F)F)cc1 | 1.9 | i | 38* | -5 | -17 |
| O=C(c1ccccn1)N1CC[C@@H]2[C@H]1c1cc(-c3ccccc3)ccc1N[C@@H]2CO | 0.1 | i | -2.1 | -6 | -4 |

An excerpt of these results, with values under each structure:
The line under a structure holds: rRNA inh HTS RFP	FGF22 binding	AF4-AF9 inh	rRNA inh HTS	rRNA inh HTS OD600
- C[C@H]1CN([C@@H](C)CO)C(=O)c2cccc(NC(=O)C3CCCCC3)c2O[C@@H]1CN(C)CC1CCCCC1
 : -3.3	i	4.2	3	7
- CN(C)C(=S)N=c1ssc(=S)n1Cc1ccco1
 : 12	i	-8.3	16	11

The list continues.
| molecule | rRNA inh HTS RFP | FGF22 binding | AF4-AF9 inh | rRNA inh HTS | rRNA inh HTS OD600 |
| --- | --- | --- | --- | --- | --- |
| COc1ccc(NC(=O)Nc2ccc3c(c2)C(=O)N([C@@H](C)CO)C[C@H](C)[C@@H](CN(C)C(=O)Nc2ccc(C(F)(F)F)cc2)O3)cc1 | -2.4 | i | -7.2 | -7 | -14 |
| O=C(CN1C(=O)NC2(CCCC2)C1=O)OCC(=O)c1cccc(Cl)c1 | -0.8 | i | 1.5 | 2 | 2 |
| C[C@H](CO)N1C[C@H](C)[C@H](CN(C)C(=O)Nc2ccc(C(F)(F)F)cc2)Oc2c(NS(=O)(=O)c3cn(C)cn3)cccc2C1=O | -3.2 | i | -6.8 | 0 | -1 |
| C[C@@H]1CCCCO[C@H](CN(C)C(=O)C2CCCCC2)[C@H](C)CN([C@H](C)CO)C(=O)c2cc(NC(=O)CCC(F)(F)F)ccc2O1 | 0.0 | i | 1.7 | -3 | -6 |
| C[C@@H]1CN([C@H](C)CO)C(=O)c2cc(C3=CCCC3)cnc2O[C@@H]1CN(C)Cc1cccnc1 | -1.5 | i | -2.2 | 7 | 13 |
| Cc1ccc2ccccc2c1C(O)c1ncc(-c2ccccc2F)[nH]1 (stereo not given) | -14 | i | 2.2 | -55 | -79 |
| COc1ccccc1Cc1c(C2CCCCC2)nc2ccc(C)cn12 | -19 | i | 5.4 | -60 | -83 |
| CO[C@H]1CN(C)C(=O)c2cc(NC(=O)Nc3cccc(Cl)c3)ccc2OC[C@@H](C)NC[C@H]1C | 9.4&7.2 | i | 5.6 | -5&-4 | -5&-6 |
| CCC(=O)N1CC2(C1)[C@@H](c1ccccc1)[C@@H](CO)N2Cc1ccccc1OC | -1.4 | i | -0.8 | -1 | 4 |
| CO[C@@H]1CN(C)C(=O)c2ccc(NS(C)(=O)=O)cc2OC[C@H](C)N(CC2CC2)C[C@@H]1C | -2.6 | i | -0.6 | 0 | 2 |
| CC(=O)N(C)C[C@H]1Oc2ncc(-c3ccc(C(=O)N(C)C)cc3)cc2C(=O)N([C@H](C)CO)C[C@H]1C | -2.3 | i | -1.5 | 3 | 4 |
| Cc1cc(C)c(C(=O)c2ccccc2)c(C)c1 | 0.6 | i | -0.9 | 5 | 10 |

Full records as entered above:
Shown for O=C(CN1C(=O)NC2(CCCC2)C1=O)OCC(=O)c1cccc(Cl)c1 = rRNA inh HTS RFP: -0.8; FGF22 binding: i; AF4-AF9 inh: 1.5; rRNA inh HTS: 2; rRNA inh HTS OD600: 2
Shown for CO[C@H]1CN(C)C(=O)c2cc(NC(=O)Nc3cccc(Cl)c3)ccc2OC[C@@H](C)NC[C@H]1C = rRNA inh HTS RFP: 9.4&7.2; FGF22 binding: i; AF4-AF9 inh: 5.6; rRNA inh HTS: -5&-4; rRNA inh HTS OD600: -5&-6

Going on with the list.
| molecule | rRNA inh HTS RFP | FGF22 binding | AF4-AF9 inh | rRNA inh HTS | rRNA inh HTS OD600 |
| --- | --- | --- | --- | --- | --- |
| CCCNC(=O)Nc1ccc2c(c1)C(=O)N(C)C[C@H](OC)[C@H](C)CN(C(=O)C1CCC1)[C@H](C)CO2 | -1.7 | i | 2.6 | 1 | 1 |
| COc1ccc(S(=O)(=O)Nc2ccc3c(c2)C(=O)N([C@H](C)CO)C[C@H](C)[C@@H](CN(C)CC2CC2)OCCCC[C@@H](C)O3)cc1 | 1.3 | i | 0.8 | 3 | 6 |
| COc1ccc(S(=O)(=O)Nc2ccc3c(c2)C(=O)N([C@@H](C)CO)C[C@H](C)[C@H](CN(C)Cc2ccc(C(F)(F)F)cc2)OCCCC[C@H](C)O3)cc1 | 3.6 | i | 0.5 | -2 | -14 |
| Cc1noc(C)c1S(=O)(=O)N(C)C[C@H]1OCCCC[C@H](C)Oc2ccc(NC(=O)c3ccccc3)cc2C(=O)N([C@H](C)CO)C[C@H]1C | 2.2 | i | 2.6 | -1 | -3 |
| C[N+](C)(C)CCNC(=O)c1c[nH]c2ccccc12 | 1.7 | i | -6.7 | 12 | 5 |
| COCC(=O)Nc1ccc2c(c1)C(=O)N(C)[C@@H]1CC[C@H](CC(=O)NCCc3ccccc3)O[C@H]1CO2 | 1.0 | i | -1.1 | 1 | 0 |
| C[C@H](CO)N1C[C@H](C)[C@H](CN(C)C(=O)Nc2ccc3c(c2)OCO3)Oc2cc(C3=CCCC3)ccc2S1(=O)=O | 6.5 | + | 1.6 | -6 | -6 |
| COc1ccccc1S(=O)(=O)N(C)C[C@@H]1OCc2cnnn2CCCC(=O)N([C@H](C)CO)C[C@H]1C | -2.9&-0.3 | i | -4.0&-2.3 | 1&2 | 6&1 |
| Cc1noc(C)c1NC(=O)Nc1cccc2c1O[C@@H](CN(C)C)[C@@H](C)CN([C@@H](C)CO)C2=O | 0.0 | i | -0.8 | -6 | -15 |
| COc1ccc2oc(-c3ccncc3)cc(=O)c2c1 | -3.5 | i | -1.9 | -15 | -23 |
| O=C(Cc1cccnc1)N1CC(=O)N2[C@H](CO)[C@@H](c3ccc(/C=C/c4ccccc4)cc3)[C@H]2C1 | -0.4 | i | 10 | 2 | 7 |
| C[C@H]1CCCCO[C@@H](CN(C)C(=O)Nc2ccc(F)cc2)[C@@H](C)CN([C@@H](C)CO)C(=O)c2cc(NC(=O)c3ccncc3)ccc2O1 | 2.0 | i | 1.6 | -1 | 7 |
| CCOc1ccccc1OCC(=O)NC1CCSc2ccccc21 (stereo not given) | -0.1 | i | 8.6 | -1 | -8 |
| C/C=C/c1cccc(-c2nc(C(=O)NCc3cccc(OC)c3)cc3c2[C@H](CCO)N([S@@](=O)C(C)(C)C)C3)c1 | 7.6 | i | -1.5 | 2 | 2 |
| CCOc1ccccc1C=NN1CCCCCC1 | -2.5 | i | 3.4 | 3 | 3 |
| C[C@H](CO)N1C[C@H](C)[C@H](CN(C)C(=O)NC2CCCCC2)Oc2c(NS(=O)(=O)c3ccc(Cl)cc3)cccc2C1=O | 4.8 | i | -0.3 | -9 | -7 |
| CCS(=O)(=O)N1CCCCN2[C@@H](CO)[C@@H](c3ccc(-c4ccc(C(=O)N(C)C)cc4)cc3)[C@@H]2C1 | 2.0 | i | -2.1 | -7 | 8 |
| Cc1noc(C)c1NC(=O)Nc1ccc2c(c1)C(=O)N([C@@H](C)CO)C[C@@H](C)[C@H](CN(C)C(=O)NC1CCCCC1)OCCCC[C@H](C)O2 | 0.5 | i | 1.6 | 1 | -3 |
| COc1cccc(Nc2ncnc3ccc(Br)cc23)c1 | -4.1 | i | -3.2 | 0 | -2 |
| C/C=C/c1cnc2c(c1)C(=O)N([C@H](C)CO)C[C@H](C)[C@H](CN(C)CC1CCOCC1)O2 | -0.6 | i | -4.8 | 1 | 9 |
| C[C@H](CO)N1C[C@H](C)[C@H](CN(C)C(=O)Nc2ccc3c(c2)OCO3)OCCCC[C@H](C)Oc2ccc(NC(=O)Nc3cccc4ccccc34)cc2C1=O | 0.2 | i | -2.4 | 3 | 7 |
| C[C@@H]1CN([C@H](C)CO)C(=O)c2cc(NC(=O)C3CCCCC3)ccc2O[C@H]1CN(C)C(=O)NC1CCCCC1 | -0.8 | i | -8.4 | -1 | 4 |
| C[C@@H]1CN([C@@H](C)CO)C(=O)c2cc(NC(=O)c3ccccc3)ccc2O[C@@H](C)CCCCO[C@H]1CN(C)Cc1ccc(C(=O)O)cc1 | 0.2 | i | -1.7 | 3 | 8 |
| C[C@H]1CN([C@@H](C)CO)C(=O)Cc2cc(NC(=O)Nc3ccccc3)ccc2O[C@@H]1CN(C)S(=O)(=O)c1cn(C)cn1 | -1.5 | i | -2.2 | -1 | 7 |
| C[C@H]1CN([C@@H](C)CO)C(=O)c2cc(-c3cccc(F)c3)cnc2O[C@@H]1CN(C)CC1CCCC1 | -4.3 | i | -3.8 | -1 | 4 |
| CO[C@H]1CN(C)C(=O)c2cc(C#N)ccc2OC[C@H]2O[C@@H](CC[C@H]2OC)CCN(C)C(=O)[C@@H]1C | 0.9 | i | -9.2 | 3 | 6 |
| OC(c1ccccc1)(c1nc(/C=C/c2ccccc2)cs1)C(F)(F)F (stereo not given) | -19 | i | 19 | -59 | -76 |
| CN(C(=O)c1cccc(NC(=O)Cc2cccc(NC(=O)C3CCN(C(=O)C4CC4)CC3)c2)c1)C1CC1 | -1.0 | i | -2.8 | 6 | 19 |
| C[C@H](CO)N1C[C@H](C)[C@H](CN(C)C(=O)Nc2ccccc2)Oc2ccc(NS(=O)(=O)c3ccc(Cl)cc3)cc2C1=O | 2.6 | i | -1.9 | -1 | -5 |
| CCCNC(=O)Nc1ccc2c(c1)OC[C@H](C)N(C)C[C@H](C)[C@H](OC)CN(C)C2=O | 1.3 | i | -0.9 | 0 | 7 |
| COc1ccccc1CN(C)C[C@H]1OCc2cn(nn2)CCCC(=O)N([C@@H](C)CO)C[C@H]1C | 1.1 | i | 0.6 | 1 | 2 |
| C[C@H]1CN([C@@H](C)CO)C(=O)c2cc(NC(=O)CCCN(C)C)ccc2O[C@H]1CN(C)Cc1ccncc1 | 0.5 | i | -1.9 | 4 | 5 |
| CN(C)CC(=O)N1C[C@@H]2[C@H](c3ccccc31)[C@H](CO)N2C(=O)c1ccccn1 | 0.1 | i | -8.1 | 9 | 14 |
| C[C@H]1CN([C@@H](C)CO)C(=O)c2cc(C3=CCCCC3)cnc2O[C@H]1CN(C)Cc1ccccc1F | 1.3 | i | 2.5 | 4 | -12 |
| CCCCc1c(-c2ccccc2OC)ncn1Cc1ccc(Cl)cc1Cl | -8.3 | i | 1.9 | -50 | -75 |
| COc1ccccc1-c1ccc2c(c1)[C@H]1[C@H](CCN1S(=O)(=O)c1ccccc1)[C@@H](CO)N2 | 0.0 | i | -1.2 | 4 | -15 |
| COC(=O)[C@@H]1[C@@H](CO)[C@@H]2Cn3c(ccc(-c4cccc(F)c4)c3=O)[C@@H]2N1C(C)=O | -2.9 | i | -2.4 | 1 | 7 |
| CC(=O)Oc1cc2c(c3ccccc13)CCC2=O | 33 | i | 6.2 | 11 | -33 |
| CN(C)c1nc(N)nc(CSc2nnnn2-c2ccc(Cl)cc2)n1 | 4.3 | i | -1.8 | 11 | 10 |
| N#Cc1cccc(NC(=O)c2cc(C3CCCCN3S(=O)(=O)c3ccccc3)on2)c1 (stereo not given) | 8.8 | i | -3.3 | -1 | -8 |
| C[C@H](CO)N1C[C@H](C)[C@H](CN(C)C(=O)Nc2cccc3ccccc23)Oc2ccc(N(C)C)cc2CC1=O | -1.0 | i | 0.9 | -5 | -5 |

Screening results deposited in PubChem by Broad Institute.
